Sa growth 42C – inhibitors of Staphylococcus aureus growth at 42 °C; S. aureus RN4220 growth, OD600, 20 h; active compounds read low; relative growth, % (concentration not given with the values); 170,000 tested, 0.53% active; AID 720641;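 active means growth at 42 °C up to 50% and 20 or more points under that at 30 °C, or under 10% at both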;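 further: 300 nL library stock went into each well; scaled to the means of positive and negative controls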
GIV Gai3 FP – blocks GIV peptide binding to rat Galpha-i3 | P08753 | Galpha-i3/FITC-GIV peptide fluorescence polarization, 90 min; active compounds read low; scaled: aluminum fluoride 0%, vehicle 100% | percent of control (FP), % (no concentration beside the values) | 210,000 tested, 0.42% active;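 active means replicate mean at 85% of control or lower, very high polarization wells dropped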;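 further: wells of about 15 µL received 100 nL stock; the first replicate is given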
Target sequence (P08753 whole entry, looked up): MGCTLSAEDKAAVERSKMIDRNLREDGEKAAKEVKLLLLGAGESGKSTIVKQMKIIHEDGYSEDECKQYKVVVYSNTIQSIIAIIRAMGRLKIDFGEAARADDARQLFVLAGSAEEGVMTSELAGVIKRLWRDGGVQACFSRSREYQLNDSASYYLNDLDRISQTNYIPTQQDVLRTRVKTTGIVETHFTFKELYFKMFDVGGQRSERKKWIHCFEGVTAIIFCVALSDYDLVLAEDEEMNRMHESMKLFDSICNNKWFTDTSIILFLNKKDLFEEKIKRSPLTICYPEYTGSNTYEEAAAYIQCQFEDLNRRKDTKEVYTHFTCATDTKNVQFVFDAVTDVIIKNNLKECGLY
HCMV NEC inh – disrupts HCMV UL50-UL53 complex binding. inhibition, % (concentration not given with the values). 190,000 tested, 0.15% active. HTRF UL50-UL53 interaction, normalized percent inhibition;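 active means both replicates at 50% or more, plus weaker picks with an unusually low signal ratio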;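 further: stock transfer was 100 nL into about 20 µL; 0% = negative control wells and 100% = wells with untagged competitor protein; inactives centre near -12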
Sa growth 42C second temp – also measured in Sa growth 42C; calls as there; relative growth, %; measured here: growth at 30 °C;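 optical density after 20 h as mean of two plates; 100% = untreated growth and lower means inhibition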
* = called active by the depositor; · = no result given; & = joins results of further samples.

SMILES	Sa growth 42C	Sa growth 42C second temp	GIV Gai3 FP	HCMV NEC inh
COCCn1c(C)cc(C(=O)CSc2nnc(Nc3ccccc3C)s2)c1C	112	95	·	6
CCCCCNC(=O)C1CCC(Cn2c(=O)c3sccc3n(CC(N)=O)c2=O)CC1 (stereo unspecified)	·	·	104	-24
O=C(CCC(=O)N1CCc2cc(S(=O)(=O)NC3CC3)ccc21)N1CCCCC1	·	·	97	-26
COC(=O)OC1CCS(=O)(=O)C1 (stereo unspecified)	99	79	110	-25
COc1ccc(C2C(C(=O)Nc3cccnc3)=C(C)Nc3nc(SCc4ccccc4)nn32)cc1 (stereo unspecified)	108	95	105	-1
COc1ccccc1CNC(=O)c1cnn(-c2ccc(F)cc2F)c1C1CCN(C(=O)OC(C)(C)C)CC1	75	67	107	·
CCc1cc(C(=O)Nc2cnn(Cc3ccc(F)cc3)c2)no1	91	83	102	-10
Cc1cc(-c2ccccc2)nc2c1/C(=N\O)CC(C)(C)C2	101	99	103	16
O=C(CN1C(=O)c2ccccc2S1(=O)=O)NC1CCCC1	108	70	103	-14
O=C(Cn1cccc1C(=O)c1ccccc1)NCc1ccccc1	98	88	103	5
CC(=O)N(C1=C(O)c2ccccc2C(=O)C1=O)c1ccccc1	103	71	99	32
O=C(NCCCn1c(-c2ccncc2)nc2cccnc21)Nc1ccccc1Cl	·	·	102	-4
COc1ccc(S(=O)(=O)NCc2cccn2Cc2cccc(F)c2)cc1Cl	·	·	110	-23
COc1ccccc1Oc1ccccc1C(=O)N1CCCCCC1	104	101	101	-10
O=C(Nc1ccncc1)c1cc2c(s1)CCC2	139	91	·	-27
NC(=O)c1cccc2ccccc12	91	88	·	-25
CCCNC(=O)Cn1ncc2c([nH]c3ccccc32)c1=O	105	101	109	-3
Cc1[nH]c2ccc(C(=O)Nc3ccccc3F)cc2c1C	103	91	123	-32
COc1ccc(-n2c(N)cc(=O)[nH]c2=O)cc1	104	85	103	10
CCNc1nc(C)cc(Nc2ccc(NC(=O)CC)cc2)n1	·	·	108	-16
COc1ccccc1C(=O)N1c2ncnn2C2(CCCCC2)[C@@H]2CCCC[C@@H]21	103	92	95	-10
Cc1ccc(NCc2ccc3c(c2)OCO3)cc1	75	72	101	-21
COc1ccc(S(=O)(=O)N(CC(=O)Nc2ccc3c(c2)OCO3)c2ccccc2)cc1	85	79	102	-37
O=C(CSc1nc(=O)n(Cc2ccncc2)c2c1CCC2)Nc1ccc(F)cc1F	122	94	109	·
O=C(Cn1c(=O)n(-c2ccc(Cl)cc2)c(=O)c2c3c(sc21)CCCCC3)Nc1cccc(Cl)c1	110	92	108	-12

Next section.
SMILES	Sa growth 42C	Sa growth 42C second temp	GIV Gai3 FP	HCMV NEC inh
COC(=O)c1ccc(CSCC(=O)Nc2ccc(C)c(C)c2)o1	106	97	·	-7
O=C(Nc1ccccc1)C1CC2CCC1C2 (stereo unspecified)	91	91	108	3
O=c1cc(CN2CCCC2)nc2nc(NCc3ccccc3Cl)[nH]n12	·	·	99	-23
Cc1ccc(CN2C(=O)c3ccccc3CC2(C)C(=O)NC2CCC(C)CC2)cc1 (stereo unspecified)	·	·	101	-17
N#Cc1c(-c2ccco2)cc(C2CC2)nc1SCC(=O)c1ccc(Br)cc1	83	77	102	-21
O=C(Nc1ccc2nc(SCC(=O)N3CCOCC3)sc2c1)c1cccc(F)c1	96	93	105	-12
CCN1CCN(C(C)C(=O)Nc2ncc(C)s2)CC1 (stereo unspecified)	92	88	100	-5
CCOC(=O)c1cnn(CCOC(=O)c2ccc(C)cc2)c1NC(=O)c1ccc(C)cc1	105	98	104	·
CCN(CC)CCOc1cc(C)cc(C)c1	103	105	99	-12
CCOC(=O)c1c(-c2ccccc2)oc2cc(Br)c(OCC(=O)c3ccc(OC)cc3)cc12	·	·	99	-18
COc1cccc(NC(=O)C2CCCN(S(=O)(=O)c3ccc4c(c3)CCCC(=O)N4)C2)c1 (stereo unspecified)	·	·	110	8
OCc1nc2ccc(-c3ccc4nc(CO)[nH]c4c3)cc2[nH]1	92	107	102	-4
Cc1ccc(-c2csc(-c3nnn(-c4cccc(Cl)c4)c3N)n2)cc1	99	98	114	16
CCOc1ccc(CN2CCc3nc(Nc4ccc5c(c4)OCCO5)ncc3C2)cc1	109	91	104	·
Cc1ccc2c(=O)cc(C(=O)Nc3c(C)n(C)n(-c4ccccc4)c3=O)oc2c1C	93	85	104	-29
CCCC1=NN(c2cccc(C(=O)O)c2)C(=O)C1	90	73	104	-10
CCOC(=O)c1c(C)[nH]c(CCC(=O)Nc2ccc(C)c(F)c2)c1C	76	92	103	·
O=C(NCCc1ccccc1)C1=CCN(S(=O)(=O)c2ccccc2)CC1	99	95	103	·
CCc1ccc(NC(=O)Nc2cc(NC(=O)c3cccc(C)c3)ccc2N2CCCC2)cc1	·	·	98	-34
CSc1ccc(CCNC(=O)c2ccc(CS(=O)Cc3ccc(Cl)cc3)o2)cc1 (stereo unspecified)	130	85	106	·
Cc1sc(-c2ccno2)cc1S(=O)(=O)NCC1CCCO1 (stereo unspecified)	·	·	106	-19
Cc1cc(Oc2ccc(C(F)(F)F)cc2-n2cccc2)cc(C)c1Cl	105	88	100	-13
CCOc1ccc(CCNC(=O)c2nn(C)c3c2CSc2ccc(C)cc2-3)cc1OCC	100	86	100	·
Cc1ccc(NC(=O)O/N=C/c2c(C)nn(C(C)(C)C)c2C)cc1Cl	77	0	107	-22
CCN1CCN(CCNC(=O)c2cc(-c3ccccn3)nc3ccccc23)CC1	102	87	107	-74

Carrying on:
SMILES	Sa growth 42C	Sa growth 42C second temp	GIV Gai3 FP	HCMV NEC inh
CS(=O)(=O)/C(C#N)=C/c1ccccc1OCc1c(Cl)cccc1Cl	86	64	100	-6
O=c1[nH]nc(Sc2ncnc3sccc23)n1CCc1ccccc1	112	92	·	14
Cc1c(C)n(Cc2ccc(F)cc2)c2ccc(C(=O)N3CCN(c4ccc(Cl)cc4)CC3)cc12	112	97	103	·
O=c1oc2cc(O)cc(O)c2c2ccccc12	·	·	99	-19
CC(=O)NCc1ccc(S(=O)(=O)N(C)C)cc1	108	94	110	-8
O=C(NCc1csc(-c2cccs2)n1)Nc1ccc2c(c1)OCCCO2	99	92	105	-38
Cc1cccc(C)c1Nc1c(-c2ccsc2)nc2ccccn12	107	90	106	-2
O=C(c1ccc2c(c1)N(Cc1ccccc1F)C(=O)c1ccccc1S2(=O)=O)N1CCCCC1	110	90	101	-20
CC(C)c1ccc(C2C3CCc4ccccc4C3=NN2CCO)cc1 (stereo unspecified)	98	94	101	2
CCOc1ccccc1NC(=O)C1CCN(S(=O)(=O)c2ccc3c(c2)CCCN3C(C)=O)CC1	98	82	100	·
Cc1ccc(Nc2cc(N3CCN(S(=O)(=O)c4cc(C)c(C)cc4C)CC3)nc(C)n2)cc1	·	·	99	2
CCOC(=O)C1C(=O)Nc2nc(C)nn2C1c1ccccc1 (stereo unspecified)	83	82	101	-26
Cn1cc(C(=O)N2CCN(c3cccc(C(F)(F)F)c3)CC2)c2c3ccccc3n(C)c2c1=O	104	83	107	-6
COc1ccc(OC)c(NC(=O)Cn2c3ncccc3c(=O)n2-c2ccc(C)cc2)c1	·	·	104	3
CCOC(=O)c1ccc(NC(=O)c2sc(NC(=O)c3ccc(C)c([N+](=O)[O-])c3)c(C(=O)OCC)c2C)cc1	·	·	108	7
CC(C)n1cnc(S(=O)(=O)N2CCC(C(=O)Nc3cccnc3)CC2)c1	·	·	106	-23
O=C(NCCCN1CCOCC1)NC1(c2ccccc2)CC1	94	93	·	-12
C=CCNc1ncnc2c1sc1nc(CCCC)c3c(c12)CCCC3	104	97	107	·
C/C(=C\c1ccccc1)CN1CCCN(C)CC1	102	107	99	-7
O=C1C=CC(=O)N1C1CCN(Cc2ccccc2)CC1	110	87	106	-5
Cc1cccc(C2C3=C(CC(c4ccc(O)cc4)CC3=O)Nc3onc(C)c32)c1 (stereo unspecified)	·	·	110	-7
NC(=O)CSc1nc2cc(S(=O)(=O)N3CCOCC3)ccc2o1	74	82	·	-9
Cn1ncc2c(Sc3cccc4ccccc34)ncnc21	98	100	105	8
N/C(CN1CCCCC1)=N\S(=O)(=O)c1cc(Cl)cc(Cl)c1	112	100	101	·
COc1ccc(C(C#N)N2N=C(C)CC2(C)C)cc1 (stereo unspecified)	107	71	·	-7

(further entries)
SMILES	Sa growth 42C	Sa growth 42C second temp	GIV Gai3 FP	HCMV NEC inh
Cc1cc(S(=O)(=O)NC(C)C)ccc1OCC(=O)NC1CC1	98	100	116	-9
CCc1noc(C)c1C(=O)N1CCOCC1	102	105	102	4
O=C(CSc1ncnc2sc3c(c12)CCC3)Nc1ccccc1C(F)(F)F	·	·	99	0
COc1ccc(S(=O)(=O)c2cn(Cc3ccccc3)c3cc(N4CCCC4)c(F)cc3c2=O)cc1	136	92	107	·
S=C(S)OC1CC2CC1C1CCCC21 (stereo unspecified)	·	·	100	-1&6&-28
c1ccc(OCCOc2ccccc2)cc1	78	48	·	-33
Cc1nc2sccn2c(=O)c1S(=O)(=O)Nc1cc(C(F)(F)F)ccc1Cl	106	84	103	·
CCn1c(=N)n(CC(=O)c2ccccc2)c2ccccc21	82	75	98	-9
COc1ccc(OC)c(NC(=O)Nc2ccccc2Sc2cc(C)nc3ncnn23)c1	·	·	99	-6
O=C(CSc1nc2ccccc2c(=O)n1CCCO)N1CCC(c2ccccc2)=N1	81	84	·	-9
COc1ccc(CC(=O)NCc2nc3cccnc3n2Cc2ccc(C)cc2)cc1	118	85	116	·
COc1cc(Cl)c(C)cc1NC(=O)C1CCCN(c2ncnc3onc(-c4ccc(F)cc4)c23)C1 (stereo unspecified)	104	85	107	·
COc1ccc(/C=C2/C(=O)NN=C2N)cc1	97	102	·	8
CCOc1cc(C=C2C(=O)NC(=O)NC2=O)ccc1OCCOc1ccc(C)c(C)c1	·	·	103	-15
CCn1c(Cc2ccccc2)nnc1SCC(=O)N1CCCCC1C (stereo unspecified)	104	75	97	3
CCC1=Nc2cc(C(=O)NCCN3CCCCCC3)ccc2Sc2ccc(C)cc21	109	76	101	·
Cc1[nH]c(=O)[nH]c(=O)c1N	87	96	98	-8
CCCCN(C)C(=O)C1CCCN(c2ncnc3onc(C)c23)C1 (stereo unspecified)	107	100	108	·
Cc1sc2nc(CN3CCCC3)nc(NC(C)C)c2c1C	118	91	·	-28
CC1(C)C(=O)N(CC(=O)Nc2ccc3c(c2)OCO3)c2ccc(S(=O)(=O)N3CCCCC3)cc21	·	·	107	0
CCN=C1S/C(=C/c2ccc(-c3ccc(Cl)cc3C(=O)O)o2)C(=O)N1CC	·	·	103	-16
COc1ccc(-c2onc(C)c2C)cc1S(=O)(=O)NCc1ccc(Br)cc1	101	84	96	·
CCCn1cc(SCC(=O)N2N=C(c3cccs3)CC2c2ccc(OC)cc2)c2ccccc21 (stereo unspecified)	136	95	104	·
CCc1nnc2sc(COc3ccccc3Cl)nn12	·	·	103	-14
COc1cc2c(cc1O)C(C)=NC(C)(C)C2	90	87	105	·

Pulled by structure from the entries so far, 7 records:
SMILES	Sa growth 42C	Sa growth 42C second temp	GIV Gai3 FP	HCMV NEC inh
c1ccc(OCCOc2ccccc2)cc1	78	48	·	-33
O=c1[nH]nc(Sc2ncnc3sccc23)n1CCc1ccccc1	112	92	·	14
COc1ccc(C(C#N)N2N=C(C)CC2(C)C)cc1 (stereo unspecified)	107	71	·	-7
COc1ccc(S(=O)(=O)c2cn(Cc3ccccc3)c3cc(N4CCCC4)c(F)cc3c2=O)cc1	136	92	107	·
CCOc1ccc(CCNC(=O)c2nn(C)c3c2CSc2ccc(C)cc2-3)cc1OCC	100	86	100	·
CSc1ccc(CCNC(=O)c2ccc(CS(=O)Cc3ccc(Cl)cc3)o2)cc1 (stereo unspecified)	130	85	106	·
CCCn1cc(SCC(=O)N2N=C(c3cccs3)CC2c2ccc(OC)cc2)c2ccccc21 (stereo unspecified)	136	95	104	·

Continued.
SMILES	Sa growth 42C	Sa growth 42C second temp	GIV Gai3 FP	HCMV NEC inh
CCC(C)NC(=O)C1CCCN1S(=O)(=O)c1ccc2nc(-c3ccccc3)[nH]c2c1 (stereo unspecified)	106	74	104	·
CCc1ccccc1N(C)C(=O)c1cn(-c2cccc(OC)c2)c(=O)c2ccccc12	109	89	103	·
O=C(/C=C/c1cn(-c2ccccc2)nc1-c1cccs1)N1CCCC1	73	85	·	-5
Cc1nnc(Nc2ccc(C(N)=O)cc2)c2ccccc12	92	88	103	-4
CCN1CCN(CCCNC(=O)c2cnn(-c3ccccc3)c2C2CCN(C(=O)OC(C)(C)C)CC2)CC1	107	96	108	·
CCCN(CCC)C(=O)c1ccccc1Cl	84	85	·	-21
CCN(CC)C(=O)C1CCCN(C(=O)Nc2ccccc2)C1 (stereo unspecified)	111	96	106	-8
Cc1ccccc1CN1C(=O)c2ccccc2Sc2ccc(C(=O)N3CCOCC3)cc21	109	91	104	·
O=C(Cn1cccc1C(=O)c1ccccc1)NCCc1ccccc1	107	88	103	1
O=C(Nc1cccc(C(F)(F)F)c1)C1CCN(c2nnc(-n3cccc3)s2)CC1	88	87	101	·
CCOC(=O)c1c(C)n(-c2ccc(Cl)cc2)c2ccc(OC(=O)/C=C/c3ccccc3)cc12	·	·	107	0

Single records, as listed above. Order of values: Sa growth 42C | Sa growth 42C second temp | GIV Gai3 FP | HCMV NEC inh
`CCN(CC)C(=O)C1CCCN(C(=O)Nc2ccccc2)C1` (stereo unspecified) in the list: 111 | 96 | 106 | -8
`CCC(C)NC(=O)C1CCCN1S(=O)(=O)c1ccc2nc(-c3ccccc3)[nH]c2c1` (stereo unspecified) in the list: 106 | 74 | 104 | ·
`CCc1ccccc1N(C)C(=O)c1cn(-c2cccc(OC)c2)c(=O)c2ccccc12` in the list: 109 | 89 | 103 | ·

Screens as filed in PubChem BioAssay.
